HIV Env fusion: blocks HIV Env-driven cell-cell fusion; HeLa-JRFL Env/CEM21 cell fusion, luciferase; inhibition, % at 12.3 µM; hit rate 1.1% among 360,000;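 active means mean replicate inhibition score of at least 50 and every replicate individually at or above 50; inconclusive means only one of the two criteria met; inactive means mean below 50 and not all replicates reaching 50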;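 further: 0% = plate neutral controls and 100% = maraviroc near 300 nM; one replicate is shown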
Yeast UUG start: alters start codon recognition fidelity in yeast; hit rate 0.13% among 350,000; S. cerevisiae UUG-firefly luciferase reporter, luminescence/redox ratio; AID 602363; activity score, % at 18.7 µM;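 active means replicate mean at a twofold rise or more, about +100% in these data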;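 further: firefly luciferase made from a UUG start codon reports start codon fidelity; reporter light over untreated wells divided by growth signal over untreated wells; some hits fall short of that in this replicate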
Rce1 inh: yeast Ras-converting enzyme inhibition | calls only | AID 2563 | hit rate 0.27% among 290,000 | yeast membranes, quenched prenylated peptide cleavage fluorescence;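 active means fall in fluorescence gain of 50% or more versus controls, with final raw signal at or below 3038400; inconclusive means same 50% fall but final raw signal above 3038400; inactive means fall in fluorescence gain under 50%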;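 further: plate controls were neutral control wells for no effect and wells lacking membranes for full effect; tested at 10 µM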
Target sequence (Q03530 whole entry, looked up): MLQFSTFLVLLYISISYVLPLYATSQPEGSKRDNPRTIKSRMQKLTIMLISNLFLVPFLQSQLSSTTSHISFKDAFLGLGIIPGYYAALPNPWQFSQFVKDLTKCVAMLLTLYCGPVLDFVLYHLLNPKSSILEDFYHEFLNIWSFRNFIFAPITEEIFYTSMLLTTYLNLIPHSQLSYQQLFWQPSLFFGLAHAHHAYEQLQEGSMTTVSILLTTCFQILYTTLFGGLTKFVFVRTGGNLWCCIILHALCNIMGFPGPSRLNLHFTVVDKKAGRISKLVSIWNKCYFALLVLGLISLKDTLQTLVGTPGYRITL
eIF4H FP inh: inhibitors of RNA binding by human eIF4H | Q15056 | eIF4H fluorescence polarization binding assay | inhibition, % at 35 µM | hit rate 0.94% among 290,000;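 active means 50% or more with normal probe brightness, or confirmed in later tests; inconclusive means above 50% with abnormal brightness, or retests that disagree; inactive means below 50% or failed in later tests; about a fifth of its hits are not listed in these tables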;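 further: calls also rest on retests at 20 µM and on dose response follow-up; 0% = protein and probe with vehicle and 100% = probe without protein; strong numbers were not always called active; many hits fall short of the cut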
MT1-MMP act inh: MT1-MMP (human) activation inhibition; AID 651647; P50281; hit rate 0.061% among 360,000; HT1080 RFP-PRO-GFP cells, GFP/RFP ratio fluorescence, overnight; percent of plate control window, DMSO zero; GFP/RFP ratio change, % at 20 µM;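 active means GFP/RFP ratio change of at least 30% with cell ATP level not reduced by more than half and red fluorescence within 50% of control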; further: strong numbers were not always called active
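Test system: HT1080 RFP-PRO-GFP cells; Benchmarks: DMSO and RFP-L50D-GFP cell wells; Timing: cells overnight before dosing, compound overnight, 37 °C, 5% CO2; Compound: one 20 µM compound dose with 1% DMSO; Read-out: GFP/RFP fluorescence ratio.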
CSC inhib: blocks cancer stem cells; cancer stem cell-like cells viability, luminescence; inhibition, % at 7.5 µM; hit rate 1.1% among 300,000; AID 2717;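 active means mean at 75% or more and at least half the replicates too; inconclusive means mean and replicates disagree; tested in HMLE shEcad cells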;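 further: 0% = median of negative and 100% = median of positive control wells; the first replicate is given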
PABP FP inh: PABP-poly(A) binding inhibition. P11940. PABP-poly(A) RNA binding, fluorescence polarization. inhibition, % at 35 µM. hit rate 1% among 290,000. AID 2014;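 active means 50% or more with normal probe brightness, or confirmed in later tests; inconclusive means above 50% with abnormal brightness, or retests that disagree; inactive means below 50% or failed in later tests; about a fifth of its hits are not listed in these tables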;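 further: calls also rest on retests at 20 µM and on dose response follow-up; controls were probe without protein and protein plus probe with vehicle; some compounds called inactive have numbers as strong as hits; many hits fall short of the cut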
Target sequence (P11940 whole entry, looked up): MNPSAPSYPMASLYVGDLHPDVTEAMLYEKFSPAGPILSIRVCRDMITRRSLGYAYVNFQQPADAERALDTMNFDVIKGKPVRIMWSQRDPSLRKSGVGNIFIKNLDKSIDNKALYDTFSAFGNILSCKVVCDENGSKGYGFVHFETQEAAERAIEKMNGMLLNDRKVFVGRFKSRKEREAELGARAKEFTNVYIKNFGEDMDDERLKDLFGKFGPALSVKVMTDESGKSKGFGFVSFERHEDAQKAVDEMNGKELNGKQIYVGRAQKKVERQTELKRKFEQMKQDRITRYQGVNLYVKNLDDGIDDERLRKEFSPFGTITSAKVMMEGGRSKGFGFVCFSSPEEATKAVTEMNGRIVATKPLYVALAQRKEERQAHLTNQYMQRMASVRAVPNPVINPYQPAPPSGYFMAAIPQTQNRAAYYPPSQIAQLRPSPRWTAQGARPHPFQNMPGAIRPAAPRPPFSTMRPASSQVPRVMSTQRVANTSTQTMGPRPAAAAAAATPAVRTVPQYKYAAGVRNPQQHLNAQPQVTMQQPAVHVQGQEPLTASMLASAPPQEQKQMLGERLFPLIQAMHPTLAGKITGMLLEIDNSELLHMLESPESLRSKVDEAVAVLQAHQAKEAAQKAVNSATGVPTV
eIF4H FP inh retest: recorded beside eIF4H FP inh, whose call it bears; inhibition, %; compound at 20 µM; confirmation average;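 mean of two retest wells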
PABP FP inh retest: second read-out of PABP FP inh, no call of its own (marks repeat the call); inhibition, %; compound at 20 µM; confirmation repeats;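 mean of two retest wells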
MT1-MMP act inh RFP: further read-out of MT1-MMP act inh, marked with its call; RFP signal change, %; measured here: RFP expression control read;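 0 = vehicle wells; hits needed this value within 50% of zero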
* hit, by the source's call; i = inactive; u = inconclusive; x = not tested or not shown. Rows are unselected; overall some 3% were active at least once.

Preview, two compounds:
SMILES	HIV Env fusion	Yeast UUG start	Rce1 inh	eIF4H FP inh	MT1-MMP act inh	MT1-MMP act inh RFP	CSC inhib	PABP FP inh	others
O=C(N/N=C/C=C/c1ccc2c(c1)OCO2)c1ccc([N+](=O)[O-])cc1	-27	-21	i	8	4	2	17	-3
O=C(N/N=C/C=C/c1ccccc1)C(O)c1ccccc1 (configuration not stated)	-37	x	i	x	3	2	-3	x

The list itself, from the start:
SMILES	HIV Env fusion	Yeast UUG start	Rce1 inh	eIF4H FP inh	MT1-MMP act inh	MT1-MMP act inh RFP	CSC inhib	PABP FP inh	others
O=C(N/N=C/C=C/c1ccc2c(c1)OCO2)c1ccc([N+](=O)[O-])cc1	-27	-21	i	8	4	2	17	-3
O=C(N/N=C/C=C/c1ccccc1)C(O)c1ccccc1 (configuration not stated)	-37	x	i	x	3	2	-3	x
COc1ccc(C)cc1S(=O)(=O)N1CCCC(N2CCOCC2)C1 (configuration not stated)	-9	-2	i	8	-3	2	x	0
CC1CC(CC(C)C(=O)Nc2nncs2)C(=O)O1 (configuration not stated)	x	1	i	6	-7	-3	-7	-4
COc1ccc(C(C(=O)NC2CCCCC2)N(Cc2cccnc2)C(=O)c2snc(C(N)=O)c2N)cc1 (configuration not stated)	9	8	i	5	4	0	-5	-8
COc1cccc(NC(=O)C(C)(C)C)c1	-25	-16	x	x	-1	2	-6	x
Cn1nc(C(C)(C)C)cc1NC(=O)Nc1cc(Cl)cc(Cl)c1	22	9	i	-5	16	-3	19	3
Cc1ccccc1OCC(=O)NN1C(=O)C2C3C=CC(O3)C2C1=O (configuration not stated)	6	x	i	-4	2	5	-13	-4
CC(=O)c1cccc(-c2ccnc3c2CC(C(=O)Nc2cccc(C(F)(F)F)c2)O3)c1 (configuration not stated)	u	0	x	x	-2	-22	x	x
COc1cc(NC(=O)c2ccccc2)c(OC)cc1Cl	x	-15	i	4	-3	3	-5	4
C=CCN(CC(=O)Nc1cccnc1)S(=O)(=O)c1ccc(Cl)cc1	-14	x	x	x	-7	-3	-5	x
COc1cc(-n2c(=O)c3ccccc3n(Cc3cccnc3)c2=O)cc(OC)c1OC	x	x	i	x	2	2	-5	x
Cc1ccc(-c2nn(-c3ccccc3)cc2/C=N/O)cc1	-19	0	i	-1	3	-1	25	-10
COC(=O)C1=C(C)N(C)C(=S)NC1c1ccccc1 (configuration not stated)	1	x	i	-4	4	10	-3	1
COC(=O)c1ccc(CSc2ccccc2NC(=S)Nc2cccc(C(F)(F)F)c2)o1	-8	1	x	x	3	3	x	x
COc1cc([N+](=O)[O-])cc(/C=N/NC(=O)Cn2cncn2)c1O	7	-23	i	12	-12	-3	0	8
COc1ccc(N(C)C(=O)c2cc3c(s2)-c2ccccc2OC3)c(OC)c1	1	3	i	4	-1	-4	x	4
COc1ccc(/C=N/NC(=O)Cc2cc(OC)c(OC)cc2[N+](=O)[O-])cc1	-8	1	i	7	1	3	-7	-5
COCCNC(=O)CCCC(=O)NCCOC	4	-5	i	5	2	-6	-5	-1
COc1cc(C(=O)COC(=O)c2ccc3c(c2)OCCO3)cc(OC)c1OC	-11	2	x	x	-2	-3	x	x
CNC(=O)C1CCN(S(=O)(=O)c2c(C)noc2/C=C/c2ccc(C)cc2)CC1	-7	-3	i	-2	1	0	-9	-8
COc1ccc(Cl)c(Cn2c(NCC(C)O)nc3c2c(=O)n(C)c(=O)n3C)c1 (configuration not stated)	x	-5	i	-2	7	-5	-3	-9
Cc1ccc(CNC(=O)c2cc(S(=O)(=O)N3CCCCC3)ccc2N2CCOCC2)cc1	5	5	x	x	1	-11	x	x
O=C(COC(=O)[C@H](Cc1ccccc1)NC(=O)c1cccs1)Nc1c(Cl)cccc1Cl	-3	-10	i	-11	-6	3	-6	-17
COc1nc(N)c(S(=O)(=O)c2ccccc2)cc1C#N	-16	-3	i	2	-1	0	-6	-5
Cc1cccc(N2CCN(C(=O)C(C)C)CC2)c1C	2	-10	i	-13	0	1	x	-6
O=C(Nc1ccc(N2CCN(C(=O)c3ccccc3)CC2)c(Cl)c1)c1ccco1	x	-2	i	-2	-4	-15	12	-5
O=C(COC(=O)c1cccnc1Cl)NC1CCCc2ccccc21 (configuration not stated)	-13	-15	x	x	-3	2	-6	x
O=[N+]([O-])c1cc(-c2nnc(C34CC5CC(CC(C5)C3)C4)o2)cc([N+](=O)[O-])c1	-2	-11	i	4	-8	-8	48	-5
COc1ccc(-c2cn[nH]c2-c2ccc(OCC(=O)NN)cc2O)cc1	2	-18	i	4	-10	-8	2	2

Some of these compounds in order of count of non-hydrogen atoms, lowest first.
SMILES	HIV Env fusion	Yeast UUG start	Rce1 inh	eIF4H FP inh	MT1-MMP act inh	MT1-MMP act inh RFP	CSC inhib	PABP FP inh	others
COCCNC(=O)CCCC(=O)NCCOC	4	-5	i	5	2	-6	-5	-1
Cc1cccc(N2CCN(C(=O)C(C)C)CC2)c1C	2	-10	i	-13	0	1	x	-6
COc1nc(N)c(S(=O)(=O)c2ccccc2)cc1C#N	-16	-3	i	2	-1	0	-6	-5
Cc1ccc(-c2nn(-c3ccccc3)cc2/C=N/O)cc1	-19	0	i	-1	3	-1	25	-10
COc1cc([N+](=O)[O-])cc(/C=N/NC(=O)Cn2cncn2)c1O	7	-23	i	12	-12	-3	0	8
O=C(COC(=O)c1cccnc1Cl)NC1CCCc2ccccc21 (configuration not stated)	-13	-15	x	x	-3	2	-6	x
COc1ccc(-c2cn[nH]c2-c2ccc(OCC(=O)NN)cc2O)cc1	2	-18	i	4	-10	-8	2	2
COc1ccc(N(C)C(=O)c2cc3c(s2)-c2ccccc2OC3)c(OC)c1	1	3	i	4	-1	-4	x	4
COc1cc(C(=O)COC(=O)c2ccc3c(c2)OCCO3)cc(OC)c1OC	-11	2	x	x	-2	-3	x	x
O=C(Nc1ccc(N2CCN(C(=O)c3ccccc3)CC2)c(Cl)c1)c1ccco1	x	-2	i	-2	-4	-15	12	-5
COC(=O)c1ccc(CSc2ccccc2NC(=S)Nc2cccc(C(F)(F)F)c2)o1	-8	1	x	x	3	3	x	x
Cc1ccc(CNC(=O)c2cc(S(=O)(=O)N3CCCCC3)ccc2N2CCOCC2)cc1	5	5	x	x	1	-11	x	x

(continued)
SMILES	HIV Env fusion	Yeast UUG start	Rce1 inh	eIF4H FP inh	MT1-MMP act inh	MT1-MMP act inh RFP	CSC inhib	PABP FP inh	others
O=C(O)c1cn(CCOc2ccccc2Cl)c2ccccc12	0	x	i	12	2	3	1	-1
O=C(O)c1ccc(/C=N/NC(=S)NCCN2CCOCC2)cc1	-20	-19	i	-11	-7	-6	-6	1
c1csc(Cc2nn3c(-c4ccncc4)nnc3s2)c1	63	-16	i	72	-2	-3	-1	25	eIF4H FP inh retest=42;PABP FP inh retest=27
C[C@H](NC(=O)c1nc[nH]c1C(=O)N1CCN(c2ccccc2)CC1)C(=O)OC(C)(C)C	-11	-10	i	0	-2	2	x	-6
Oc1ccc(N=Nc2ccc(Br)cc2)c(O)c1	-123	-31	i	4	0	-10	92*	-1
CCC/C(O)=C1\C(=O)CC(C)(C)CC1=NCCO	x	-8	i	-2	1	3	-14	-4
O=c1c2sc3nc(N4CCOCC4)c4c(c3c2ncn1CCc1ccccc1)CCCC4	-14	-13	i	-6	-13	-18	72	-1
O=C(CSc1nnc(Cc2ccccc2)o1)Nc1cccc(F)c1	-7	-14	i	-11	3	5	-3	-8
COc1ccc2sc(C)cc(=O)c2c1	7	-22	x	x	3	2	x	x
O=C(CCS(=O)(=O)c1cc2c(cc1Cl)NC(=O)CO2)NCCc1ccccc1	4	-6	i	-7	-3	2	-5	4
Cc1cccc(Sc2nc(-c3ccccc3)ncc2C(=O)O)c1	0	7	x	-2	5	-2	15	-4
C=CCn1c(C)cc(C(=O)CSc2nnc3n(CCC)c(=O)c4ccccc4n23)c1C	7	-12	x	x	-5	0	x	x
Cn1c(-c2ccc(F)cc2)cnc1SCC(=O)NCc1ccco1	-31	-47	i	5	1	2	-9	-2
CC(C)C(=O)NC(=S)Nc1ccc(CN2CCOCC2)cc1	-1	x	i	0	-2	-3	3	-5
COc1ccc(C(=O)N/N=C/C2CC=CCC2)cc1OC (configuration not stated)	-7	4	i	0	0	3	-10	-4
CCc1cccc(C)c1NC(=S)NCc1ccccc1	0	x	i	-4	-1	-2	4	16
OCCn1c(-c2ccc(F)cc2)csc1=Nc1ccccc1	-2	x	i	0	-3	-11	-11	-7
COC(=O)c1ccc(C(=O)OC)c(NC(=O)COc2ccccc2OC)c1	12	-5	i	2	-1	-3	-5	6
CCn1c(NCCc2ccc(OC)c(OC)c2)nc2c1c(=O)n(C)c(=O)n2C	x	x	i	2	-1	-16	15	1
CN(CCc1ccccc1)Cc1nc(-c2cnccn2)no1	0	x	i	-2	1	6	-5	-5
CC1CCCN(C(=O)C2CCCN(S(=O)(=O)c3cccc4nsnc34)C2)C1 (configuration not stated)	x	2	i	4	-3	-3	1	-7
COc1ccccc1CNC(=O)COC(=O)c1ccc([N+](=O)[O-])o1	-17	3	x	x	-6	-1	-5	x
COc1ccc(-n2nc3c(N4CCC(C(=O)NCC(C)c5ccccc5)CC4)nnc(C)c3c2C)cc1 (configuration not stated)	7	-23	i	2	-2	-2	-3	-5
CCCCN(C(=O)Oc1ccccc1)C1CCS(=O)(=O)C1 (configuration not stated)	6	x	i	-5	-6	0	0	-6
Cn1c(=O)n(Cc2ccccc2)c(=O)c2c1nc1n2CCCN1Cc1ccccc1	x	-10	i	-4	10	-4	-7	11
O=C(Nc1ccc(Cl)cc1)c1ccsn1	x	-16	i	-8	2	8	-2	-13
